TAR Tat displ: HIV-1 TAR-Tat binding disruption; HIV-1 TAR RNA, Tat peptide displacement FRET; active compounds read high; z-score (concentration not given with the values); hit rate 0.6% among 100,000;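 further: score is relative to mean and SD of negative controls; some compounds called inactive have numbers as strong as hits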
CDC25B-CDK2 inh: human CDC25B-CDK2/CyclinA binding inhibition; z-score (test concentration not listed); AID 1259370; hit rate 0.72% among 94,000; P30305+P24941; HTRF CDC25B-CDK2/CyclinA binding, anti-His/anti-Flag; active compounds read high;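 further: score is relative to mean and SD of negative controls; strong numbers were not always called active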
Starred values were filed as active, the others as inactive; . = not tested or not shown; & = joins results of further samples.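 How the source made its calls: active means z-score from 3 up in half or more of its runs; inactive means the rest.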

no.	compound	TAR Tat displ	CDC25B-CDK2 inh
1	Cc1cc(C)c(C=C(C#N)C#N)[nH]1	.	-1.2
2	Cc1ccc(C2SCC(=O)Nc3c2c(C)nn3-c2ccc(C)cc2)cc1 (stereo not given)	1.4	-2.2
3	CC1=NCCc2c1[nH]c1cc(O)ccc21	-6.7&3.6	0.26
4	Cc1ccc(-n2nc(C)c3c2NC(=O)CSC3c2ccc(C)cc2C)cc1 (stereo not given)	0.68	0.32
5	O=C(Cc1ccccc1)OC1=C(c2ccccc2)C(=O)c2ccccc21	0.53	-0.89
6	CCOc1ccc(C2N3CCCN23)cc1 (stereo not given)	0.24	-1.9
7	CCC12CN3CC(C)(CN(C1)C3c1cccnc1)C2=O (stereo not given)	0.3	-0.47
8	CCCOc1ccc(C2SCC(=O)Nc3c2c(=O)[nH]n3C(CC)CC)cc1 (stereo not given)	2.2	2.2
9	NC(=O)CN1CC(O)CC1=O (stereo not given)	.	-0.56
10	COc1ccc(-n2c(=O)[nH]c3ccccc3c2=O)cc1	3.4	.
11	Clc1ccc(COC(Cn2ccnc2)c2ccc(Cl)cc2Cl)cc1 (stereo not given)	0.47	.
12	COc1cc2c(cc1O)C(C)NCC2 (stereo not given)	0.43	.
13	ClC1=C(Cl)C2(Cl)C3C4C=CC(C4)C3C1(Cl)C2(Cl)Cl (stereo not given)	2.4	.
14	CNNC	2.4	.
15	O=c1c2ccccc2nc(/C=C/c2ccccc2)n1-c1cccc(O)c1	0	-0.64
16	O=C(NC1CCCC1)N(Cc1ccc2c(c1)OCO2)C1CCN(Cc2ccccc2)CC1	0.11	.
17	Cc1nn(-c2ccc(Cl)cc2)c2c1C(c1ccc(F)cc1)SCC(=O)N2 (stereo not given)	0.79	-0.01
18	C[C@@H](N)Cc1cnc[nH]1	.	-2.8
19	CCC(C)N1CCN(Cc2c[nH]c3ccccc23)CC1 (stereo not given)	.	-1.1
20	c1ccc(C2CC3CC4(CCCC4)N2O3)cc1 (stereo not given)	-0.09	-0.16
21	Cc1ccc2[nH]c(C)c(C(O)CN3CCCCC3)c2c1 (stereo not given)	0.54	-1.4
22	CC(C)(C)OC(=O)NC1CCN(C(=O)c2ccc(Cl)cc2Cl)CC1	.	-1.1
23	N#C/C(=C\c1cnc[nH]1)S(=O)(=O)c1ccc(Cl)cc1	.	-1.6
24	O=[N+]([O-])c1cccc(C(O)C(Cl)(Cl)Cl)c1 (stereo not given)	.	-0.91
25	CC1(C)CC2(CCO1)NCCN1C(=O)CSC12 (stereo not given)	.	-2.1
26	CC1CC(O)(c2ccccc2)C(C)CN1C (stereo not given)	1.1	1.9
27	COC(=O)C1SC2(C(F)(F)F)CC1(O)c1c(c(OC)c3occc3c1OC)O2 (stereo not given)	.	-0.09
28	Clc1cccc(CNCCc2ccc3c(c2)OCO3)c1	-0.09	0.42
29	CC(C)CCn1c(=O)c(C(=O)Nc2cccc(Br)c2)c(O)c2ccccc21	.	-1.1
30	Cc1nn(-c2ccc(Cl)cc2)c2c1C(c1ccc3c(c1)OCO3)SCC(=O)N2 (stereo not given)	-1.7	-2.2
31	CC(=O)O[C@H]1C[C@@H](OC(C)=O)C(C)(C)C2C[C@@H](OC(C)=O)[C@]3(C)C(CC[C@@]4(C)[C@H](c5ccoc5)C[C@H]5O[C@]543)[C@]21C (stereo not given in full)	-1.1	.
32	CC(C)C[C@H](NP(=O)(O)O[C@@H]1O[C@@H](C)[C@H](O)[C@@H](O)[C@H]1O)C(=O)N[C@@H](Cc1c[nH]c2ccccc12)C(=O)O	-0.5	.
33	COC(=O)c1nc(-c2ccccc2)sc1[P+](c1ccccc1)(c1ccccc1)c1ccccc1	.	-0.12
34	CCCCN(CC)c1c([N+](=O)[O-])cc(C(F)(F)F)cc1[N+](=O)[O-]	-1.1	.
35	C=CCN1C[C@@H](C)N([C@H](c2ccc(C(=O)N(CC)CC)cc2)c2cccc(OC)c2)C[C@@H]1C	.	-0.87
36	O=C1NC(=O)C(=Cc2cccc(OCc3ccccc3)c2)C(=O)N1	.	-1.4
37	Oc1ccc2c3c1O[C@H]1c4[nH]c5ccccc5c4C[C@@]4(O)C(C2)N(CC2CC2)CCC314 (stereo not given in full)	.	-2
38	CC(C)(C#N)O[C@@H]1O[C@H](CO)[C@@H](O)[C@H](O)[C@H]1O	-2.5	.
39	O=C1CSC(c2ccc3c(c2)OCO3)c2c(n(C3CCCCC3)[nH]c2=O)N1 (stereo not given)	0.14	-0.25
40	COc1cc(C2SCC(=O)Nc3n[nH]c(C)c32)ccc1OCc1ccc(F)cc1 (stereo not given)	0.86	-1.4
41	C#CCSc1nc(C)c(Cc2c(F)cccc2Cl)c(OC(=O)N(C)C)n1	.	-0.61
42	N#CC1CC2CC1N(Cc1ccccc1)C2 (stereo not given)	.	-0.82
43	O=C1CCCN1C(=O)c1ccc(F)cc1	0.24	1.4
44	Nc1c([N+](=O)[O-])cncc1[N+](=O)[O-]	.	1.7
45	C[C@@H]1Cc2c(Cl)cc(C(=O)NC(Cc3ccccc3)C(=O)O)c(O)c2C(=O)O1 (stereo not given in full)	2.7	.
46	O=c1c2ccccc2nc(/C=C/c2c[nH]c3ccccc23)n1-c1ccccc1	-0.03	1.1
47	CCOc1ccc(Br)cc1C1C(C#N)=C(N)Oc2c1c(=O)oc1ccccc21 (stereo not given)	.	-1.3
48	Cc1nnc2n1-c1ccc(Cl)cc1C(c1ccccc1)=NC2	0.14	.
49	CC12CN3CC(C)(CN(C1)C3(C)C)C2=O	.	0.93
50	CCOC(=O)c1ncn2c1[C@@H]1CCCN1C(=O)c1cc(OC)ccc1-2	.	-0.5
51	Cc1[nH]nc2c1C(c1ccccc1F)SCC(=O)N2 (stereo not given)	1.3	-0.32
52	CC(=O)O[C@H]1C(=O)[C@@]2(C)[C@H]([C@H](OC(=O)c3ccccc3)[C@]3(O)C[C@H](O)C(C)=C1C3(C)C)[C@]1(OC(C)=O)CO[C@@H]1C[C@@H]2O	1.4	.
53	C[C@]12CCC3C(CC[C@H]4C[C@H](O)CC[C@]34C)C1CC[C@@H]2O (stereo not given in full)	2.3	.
54	C[n+]1noc(/N=C(\[O-])C(F)(F)F)c1-c1ccccc1	.	-2.7
55	O=[N+]([O-])c1ccc(O)c([N+](=O)[O-])c1	1.9	.
56	Cc1c(NC(=O)c2ccc(Cl)cc2)cc(-c2ccccc2)n1CCCN1CCOCC1	.	-0.36
57	COc1cc2c(cc1OC)-c1c(oc3c4c(ccc3c1=O)OC(C(C)C)C4)CO2 (stereo not given)	2.3	.
58	CCN(CC)[P+](CNC(=O)C12CC3CC(CC(C3)C1)C2)(N(CC)CC)N(CC)CC	.	-2.6
59	Cc1cc(OCC(=O)OC(C)C)c2c3c(c(=O)oc2c1)CCCC3	.	-0.19
60	Cn1c(=O)n(C)c2cc(CNCCc3ccccc3)ccc21	-0.64	-1

Next structures
no.	compound	TAR Tat displ	CDC25B-CDK2 inh
61	NCC(CP(=O)(O)O)c1ccc(Cl)cc1 (stereo not given)	.	0.2
62	O=C1C=CC(=O)C=C1	.	-2
63	CC12CN3CC(c4ccccc4)(CN(C1)C3c1ccco1)C2=O (stereo not given)	0.53	-1.5
64	CSc1nc(NC(C)C)nc(NC(C)C)n1	-0.44	.
65	Cc1cccc(-n2nc(C)c3c2NC(=O)CSC3c2ccccc2)c1 (stereo not given)	1.9	-0.01
66	CN(C)c1ccc(-c2ccc(N(C)C)cc2)cc1	2.9	-3.5
67	CN(Cc1ccccc1)CC(O)c1ccc2cc[nH]c2c1 (stereo not given)	.	-0.25
68	CN1CC=C(c2noc(CCC(=O)Nc3ccc4c(c3)OCCO4)n2)CC1	1.8	.
69	CCCCCc1nc2ccccc2c(=O)n1-c1ccccc1O	.	-0.14

In the list so far, these contain an NH in an aromatic ring.
no.	compound	TAR Tat displ	CDC25B-CDK2 inh
1	Cc1cc(C)c(C=C(C#N)C#N)[nH]1	.	-1.2
3	CC1=NCCc2c1[nH]c1cc(O)ccc21	-6.7&3.6	0.26
8	CCCOc1ccc(C2SCC(=O)Nc3c2c(=O)[nH]n3C(CC)CC)cc1 (stereo not given)	2.2	2.2
10	COc1ccc(-n2c(=O)[nH]c3ccccc3c2=O)cc1	3.4	.
18	C[C@@H](N)Cc1cnc[nH]1	.	-2.8
19	CCC(C)N1CCN(Cc2c[nH]c3ccccc23)CC1 (stereo not given)	.	-1.1
21	Cc1ccc2[nH]c(C)c(C(O)CN3CCCCC3)c2c1 (stereo not given)	0.54	-1.4
23	N#C/C(=C\c1cnc[nH]1)S(=O)(=O)c1ccc(Cl)cc1	.	-1.6
32	CC(C)C[C@H](NP(=O)(O)O[C@@H]1O[C@@H](C)[C@H](O)[C@@H](O)[C@H]1O)C(=O)N[C@@H](Cc1c[nH]c2ccccc12)C(=O)O	-0.5	.
37	Oc1ccc2c3c1O[C@H]1c4[nH]c5ccccc5c4C[C@@]4(O)C(C2)N(CC2CC2)CCC314 (stereo not given in full)	.	-2
39	O=C1CSC(c2ccc3c(c2)OCO3)c2c(n(C3CCCCC3)[nH]c2=O)N1 (stereo not given)	0.14	-0.25
40	COc1cc(C2SCC(=O)Nc3n[nH]c(C)c32)ccc1OCc1ccc(F)cc1 (stereo not given)	0.86	-1.4
46	O=c1c2ccccc2nc(/C=C/c2c[nH]c3ccccc23)n1-c1ccccc1	-0.03	1.1
51	Cc1[nH]nc2c1C(c1ccccc1F)SCC(=O)N2 (stereo not given)	1.3	-0.32
67	CN(Cc1ccccc1)CC(O)c1ccc2cc[nH]c2c1 (stereo not given)	.	-0.25

A portion of the library; count on the stated rates, not on these rows.
